Compound activity deposited in PubChem BioAssay by ICCB-Longwood Screening Facility, Harvard Medical School.
VACV E9 pol inh: blocks vaccinia virus processive DNA synthesis; in vitro processive DNA synthesis, absorbance read-out; hits give low values; some inactives read as strong as hits; normalized absorbance, % (test concentration not listed); 0.94% of 46,000 active;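 active = replicate mean up to 90% and picked by the depositor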;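 also: 100% = median of the test wells of a plate; 100 nL library stock went into each well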
An asterisk follows results filed as active. These rows are one share of the data, so the mix of outcomes need not match the whole.

SMILES	VACV E9 pol inh
O=C(C[n+]1cccc(/C=N/O)c1)NC12CC3CC(CC(C3)C1)C2	100
Cc1cc(OCC(=O)NC2CCCC(C)C2C)c2c3c(c(=O)oc2c1)CCCC3 (stereo unspecified)	102
O=C(/C=C/C(=O)N1c2ccccc2Sc2ccccc21)c1ccccc1	100
COC(=O)c1ccccc1S(=O)(=O)C(C)(C)C	100
Cc1cc(O)ccc1Sc1ccc(O)cc1C	93
CC1CCCC(C)N1C(=O)COC(=O)c1ccc(Cl)cc1Cl (stereo unspecified)	100
CC12CCC(C(=O)Nc3nccs3)(CC1=O)C2(C)C (stereo unspecified)	98
O=S(=O)(CC(O)c1ccc(Cl)c(Cl)c1)c1ccc(Br)cc1 (stereo unspecified)	93
COc1ccc(CC(=O)Nc2ccc(-c3cnco3)cc2)cc1OC	99
CCOC(=O)c1cc(C(=O)OC)c(C)nc1N1CCCN(Cc2ccc(F)cc2)CC1	99
Cc1cc(OCC(=O)N(C)C)c2c3c(c(=O)oc2c1)CCCC3	100
COc1ccc(S(=O)(=O)Nc2ccccc2C(=O)NCc2ccco2)cc1	100
Cc1nnsc1C(=O)N1CCN(C2c3ccccc3-c3ccccc32)CC1	111
Cc1cc2ncc(C(=O)/C=C/N(C)C)c(C)n2n1	107
Cc1nc(C(F)(F)F)ccc1C(=O)NCC1CC1	104
CC1(C)CC(O)CC(C)(C)N1CC(O)COc1ccc(-c2ccccc2)cc1 (stereo unspecified)	101
OCC(C#CCN1CCCCC1)NCc1ccccc1 (stereo unspecified)	102
CN(CC(=O)NCc1ccccn1)S(=O)(=O)c1cc(Br)cnc1N	104
O=c1cc(Nc2ccc3c(c2)OCO3)[nH]c(=O)n1-c1ccc(Br)cc1	100
Cn1nc(-c2ccc(N3CCCCC3)c(NC(=O)c3ccccc3)c2)c2ccccc2c1=O	100
COc1ccc(-c2nc3c4ccccc4[nH]c(=O)n3n2)cc1	102
CC(C)(C)N1Sc2ccccc2NC1=S	99
Cc1ccccc1CN1C(=O)C(O)(CC(=O)/C=C\c2ccccc2)c2ccccc21 (stereo unspecified)	100
CNC(=S)N1CCc2sccc2C1c1ccc(Cl)cc1 (stereo unspecified)	98
CN[C@@H]1[C@H](OC2[C@H](O[C@H]3[C@H](O)[C@@H](O)[C@H](N=C(N)N)[C@@H](O)[C@@H]3N=C(N)N)O[C@@H](C)[C@]2(O)C=O)O[C@@H](CO)[C@H](O)[C@H]1O (stereo partly specified)	101
CCc1cc2c(=O)c3c(cn4ccccc34)oc2cc1OC(C)=O	98
Cc1cccc(C(=O)OCC(=O)N2CC(C)CC(C)C2)c1O (stereo unspecified)	74
COc1ccc(C(=O)CSc2nc3ccccc3o2)cc1	107
O=C(CSC1CCCCC1)N1CCCCCC1	95
O=C(NCCc1c[nH]c2ccccc12)c1ccc(S(=O)(=O)N2CCCCC2)cc1	101
O=C(CSc1nnc2sc3ccccc3n12)N1CCc2ccccc21	100
Cc1cc(C(=O)O)c(=O)[nH]c1C	100
CCCCC(Sc1ccc2nnc(-c3ccc(OC)c(OC)c3)n2n1)C(=O)O (stereo unspecified)	95
O=C(/C=C1\Sc2ccccc2NC1=O)NCCCN1CCC(Cc2ccccc2)CC1	100
c1ccc(CN2CCN(Cc3ccccc3)C2c2ccc3c(c2)OCO3)cc1	100
CNC(=S)NC1CC2CCC1C2 (stereo unspecified)	103
CC(=O)NCCc1nc2cc(NC(C)=O)ccc2n1C	119
Cn1c(Cc2ccccc2C(=O)O)nc(=O)c2ccccc21	92
CCC(NC(=O)c1cc(OC)c(OC)c(OC)c1)C12CC3CC(CC(C3)C1)C2 (stereo unspecified)	101
Cc1cc(OCc2noc(CSc3ccc(C(F)(F)F)cn3)n2)cc(C)c1Cl	99
COc1ccc(C(=O)CNc2ccc(C#N)cc2)cc1	106
CC(O)/C=C\c1cc[n+](C)cc1 (stereo unspecified)	110
COc1ccc(C(=O)N(CC(=O)Nc2nn(-c3ccccc3)nc2C(N)=O)Cc2ccccc2)cc1	100
CC(C)N(Cc1ccccc1)S(=O)(=O)c1ccc2c(c1)CCO2	107
COc1ccccc1N1CCN(C(=O)c2cnn3c(C)c(Cc4cccc(C)c4)c(C)nc23)CC1	102
O/N=C1/C2CN3CCN(C2)CC1(Cc1ccccc1)C3	100
COc1cc(C)c2c(=O)c(-c3csc(C)n3)coc2c1	104
Cc1ccc2c(c1)C1CN(C)CCC1N2C(=O)COc1ccccc1 (stereo unspecified)	86
CC(C)NC(=O)CSc1nnc(-c2ccc(C(C)(C)C)cc2)n1-c1ccc2c(c1)OCO2	110
Cc1nc2ccc(S(=O)(=O)N(C)CC(=O)NC3CCCC3)cc2s1	108
CC1CCC(C(C)C)C(=O)/C1=C/c1ccc(N(C)C)cc1 (stereo unspecified)	100
O=C(CCc1ccccc1)OCc1nc2ccccc2s1	104
O=c1c(-c2nnnn2-c2ccccc2)c[nH]c2ccccc12	85
N#Cc1ccc(Cl)cc1NC(=O)COC(=O)C1CC1	103
CCN1C(=O)c2cccc3c(S(=O)(=O)N4CCc5ccccc5C4)ccc1c23	100
COC(=O)CN1C(=O)/C(=C\c2ccc(O)cc2)SC1=S	100
COC(=O)C1=C(C)NC(=S)NC1c1cn(-c2ccccc2)nc1-c1cccs1 (stereo unspecified)	92
N#Cc1ccc(OCC(=O)O)cc1	101
Nc1ncnc2c1ncn2[C@@H]1O[C@H](CO)[C@@H](O)[C@@H]1O	100
CCN(CCO)Cc1cn[nH]c1-c1ccc(C)c(C)c1	95

Sorted by formula weight (low to high): some entries from above
SMILES	VACV E9 pol inh
CC(O)/C=C\c1cc[n+](C)cc1 (stereo unspecified)	110
N#Cc1ccc(OCC(=O)O)cc1	101
COc1ccc(C(=O)CNc2ccc(C#N)cc2)cc1	106
Nc1ncnc2c1ncn2[C@@H]1O[C@H](CO)[C@@H](O)[C@@H]1O	100
O/N=C1/C2CN3CCN(C2)CC1(Cc1ccccc1)C3	100
CCN(CCO)Cc1cn[nH]c1-c1ccc(C)c(C)c1	95
CC(=O)NCCc1nc2cc(NC(C)=O)ccc2n1C	119
N#Cc1ccc(Cl)cc1NC(=O)COC(=O)C1CC1	103
COc1cc(C)c2c(=O)c(-c3csc(C)n3)coc2c1	104
O=c1c(-c2nnnn2-c2ccccc2)c[nH]c2ccccc12	85
Cn1c(Cc2ccccc2C(=O)O)nc(=O)c2ccccc21	92
O=C(CCc1ccccc1)OCc1nc2ccccc2s1	104
COC(=O)CN1C(=O)/C(=C\c2ccc(O)cc2)SC1=S	100
CC(C)N(Cc1ccccc1)S(=O)(=O)c1ccc2c(c1)CCO2	107
Cc1nc2ccc(S(=O)(=O)N(C)CC(=O)NC3CCCC3)cc2s1	108
CCC(NC(=O)c1cc(OC)c(OC)c(OC)c1)C12CC3CC(CC(C3)C1)C2 (stereo unspecified)	101
COC(=O)C1=C(C)NC(=S)NC1c1cn(-c2ccccc2)nc1-c1cccs1 (stereo unspecified)	92
Cc1cc(OCc2noc(CSc3ccc(C(F)(F)F)cn3)n2)cc(C)c1Cl	99
CC(C)NC(=O)CSc1nnc(-c2ccc(C(C)(C)C)cc2)n1-c1ccc2c(c1)OCO2	110
COc1ccccc1N1CCN(C(=O)c2cnn3c(C)c(Cc4cccc(C)c4)c(C)nc23)CC1	102
COc1ccc(C(=O)N(CC(=O)Nc2nn(-c3ccccc3)nc2C(N)=O)Cc2ccccc2)cc1	100

Next compounds follow:
SMILES	VACV E9 pol inh
CC(C)(C)c1ccccc1OCC(O)CN1CCN(c2ccccc2F)CC1 (stereo unspecified)	100
CC(=O)Nc1ccc(OCc2cnc(Cl)s2)cc1	110
COc1ccc(NC(=O)CS(=O)(=O)c2c[nH]c3ccccc23)cc1	94
Cc1cccc(N(C)S(=O)(=O)c2ccc3[nH]c4c(c3c2)CCCC4)c1	102
C=CCn1c(SCC(=O)N2CCc3ccccc3C2)nnc1-c1ccccc1OC	100
Cc1onc(-c2ccccc2)c1C(=O)NC1C(=O)N2[C@@H]1SC(C)(C)[C@@H]2C(=O)O (stereo partly specified)	99
CS(=O)(=O)c1ccc([C@@H](O)[C@@H](CO)NC(=O)C(Cl)Cl)cc1	100
Clc1ccccc1Oc1cnc2ccccc2n1	106
COc1cccc(Cn2c(-c3cncs3)nc3ccccc32)c1	106
COC(=O)c1ccccc1NCNc1ccccc1C(=O)OC	100
Cc1cc(N2CCCCC2)nc(N2CCOCC2)n1	101
CCn1c(C(=O)Nc2ccc(C)c(C)c2)cc2sc(Cl)cc21	105
N#Cc1ncc(C(F)(F)F)cc1Oc1ccc(O)cc1	105
Cc1ccc(Cn2ncc3c(N4CCOCC4)ncnc32)cc1	102
CN(Cc1ccccc1)C(=O)c1cnc2sccn2c1=O	92
CCN(CC)CC(O)COc1ccc(C(C)(C)CC)cc1C(C)(C)CC (stereo unspecified)	100
CCOC(=O)c1c(N=CN(C)C)c(C#N)c2n1CCC2	100
COc1ccc(OCCn2c(-c3ccc(Cl)cc3)nc3ccccc3c2=O)cc1	99
COc1ccc(-c2ccnc(SCC(=O)N3CCOCC3)n2)cc1	102
Cc1nc(CCNC(=O)c2ccccc2)cs1	103
O=C(c1ccc(Cl)cc1)N(Cc1cccnc1)Cc1cccnc1	105
CC(C)N1CCc2c(sc(NC(=O)C(C)(C)C)c2C#N)C1	100
CCOC(=O)Cc1nc(O)cs1	100
N#CC1=C(N)C(C#N)=c2s/c(=C/c3cccc(F)c3)c(=O)n2C1c1cccc(F)c1 (stereo unspecified)	99
Cc1cccc(C)c1NC(=S)NC12CC3CC(CC(C3)C1)C2	95
Cc1cc(C)n(-c2ccc(C(=O)C(C#N)c3nc4ccccc4n3C)cc2)n1 (stereo unspecified)	104
O=C(On1c(-c2ccccc2)cc2ccccc21)c1cccnc1Cl	97
FC(F)(F)c1ccc(-c2nc(-c3cc(-c4ccccc4)no3)cs2)cc1	97
NC(=NS(=O)(=O)c1ccccc1)c1ccccc1F	110
CSc1ccc(-c2nc3ccc(C)cn3c2NC2CCCCC2)cc1	103
O=C1NC2(CCN(C(=O)c3ncoc3-c3ccccc3)CC2)Oc2ccccc21	101
Clc1ccccc1CSc1nc(NCC2CCCO2)c2ccccc2n1 (stereo unspecified)	98
Cc1cc(C(F)(F)F)nn1CC(=O)NCc1cccs1	103
Cc1ccc(CN2CC34C=CC(O3)C(C(=O)NCCc3ccc(Cl)cc3)C4C2=O)cc1 (stereo unspecified)	88
CC1=CC(C)(C)N(C(=O)c2ccc(F)cc2)c2cc3c(cc21)OCO3	95
Cc1ccccc1Cn1c(C(C)NC(=O)C(C)(C)C)nc2ccccc21 (stereo unspecified)	100
CC(Sc1nc(-c2ccccc2)cc(C(F)(F)F)n1)C(=O)O (stereo unspecified)	97
CCOC(=O)/C(=C(/C)N)C1CC(=O)N(c2ccc(C(=O)OCC)cc2)C1=O (stereo unspecified)	92
N#Cc1c(NC(=O)C2=COCCO2)sc2c1CCC2	87
CCOC(=O)c1c(-c2ccccc2)oc2c(-c3ccccc3)cc(O)cc12	100
O=C(NC1CC1)c1ccc(CSCc2cccc(F)c2)o1	99
CC1(C)CC(NCc2ccco2)CC(C)(C)N1	100
C=CCNC(=O)C1CCCN(S(C)(=O)=O)C1 (stereo unspecified)	86
CN1C(=O)N(C)C(=O)C(C2CCC3OCC2O3)(C2CCC3OCC2O3)C1=O (stereo unspecified)	98
O=C(COc1c(Br)cc(Br)c2cccnc12)N1CCCCC1	97
Cc1nn(CCCC(=O)N(C)Cc2ccccc2)c(=O)c2cc3sccc3n12	98
COc1ccc(C(=O)OC(C)CN2CCN(C)CC2)cc1 (stereo unspecified)	101
COc1ccc(S(=O)(=O)N2CCCc3cccc(O)c32)cc1	99
Cc1ccccc1C(=O)OCC(=O)c1sc2ccc(Cl)cc2c1C	101
O=C(NC(=S)c1c(-c2ccccc2)cc2ccccn12)c1ccccc1	99
O=C(c1nn2c(C(F)(F)F)cc(-c3ccccc3)nc2c1Br)N1CCN2CCCC2C1 (stereo unspecified)	98
CCCCC[C@H](O)/C=C/C=C\CCCCCCCC(=O)O	100
Cc1noc2ncnc(SCC(=O)Nc3cc(Cl)cc(Cl)c3)c12	98
Cc1ccc(N=Cc2c[nH]c3ccccc23)nc1	101
CSc1nc(C)cc(OCC(=O)N2CCCCC2)n1	102
CNC(=O)C1CC(=O)N(CCc2ccc(C)cc2)C1 (stereo unspecified)	103
COc1ccc(-c2nnc(NC(=O)C(C)Sc3ccc(C)cc3)s2)cc1 (stereo unspecified)	98
CCn1c(=O)c2cc(C(=O)N(C)c3cccc(C(F)(F)F)c3)sc2c2ccccc21	90
CCCn1c(SCCCc2ccccc2)nc2c1c(=O)[nH]c(=O)n2C	100
Cc1sc(Cc2ccc(Cl)cc2)nc1O	100
The list continues:
SMILES	VACV E9 pol inh
O=C(O)CCCCC1SCC2NC(=O)NC21 (stereo unspecified)	103
COc1ccccc1NC(=O)COC(=O)C12CC3CC(CC(C3)C1)C2	100
O=S(=O)(c1ccc(O)cc1)c1ccc(O)cc1	100
Fc1ccc(-c2csc(NC3=NCCC3)n2)cc1	103
CCN1CCOC(CC(=O)Nc2ccccc2C)C1=O (stereo unspecified)	91
Cc1ccc(-c2ccc(CCC(=O)O)o2)cc1	98
CC(C)(C)c1ccc(-c2nnnn2-c2ccccc2)cc1	105
CCc1ccc(NC(=O)N(Cc2cccnc2)Cc2ccco2)cc1	106
O=C(Nc1cccc2ncccc12)c1cc2ccccc2o1	101
CCN(C(=O)CSc1ncnc2ccccc12)C1CCCCC1	96
COc1ccc(CCNC(=O)C2CCCCC2)cc1OC	94
COc1ccccc1NC(=O)CCn1c(=O)sc2ccccc21	97
CCCCS(=O)(=O)Nc1ccc(Cc2ccncc2)cc1	100
CC(C)c1ccc(Nc2c(-c3ccc(N(C)C)cc3)nc3nc[nH]n23)cc1	82
Cc1nc2ccccc2nc1Sc1nnc(-c2ccccc2)o1	101
NC(CO)C(=O)NNCc1ccc(O)c(O)c1O (stereo unspecified)	100
CC(=O)Nc1ccc(S(=O)(=O)NCCn2ccc3ccccc32)cc1	97
O=C(O)CCC(=O)Nc1ccccc1C(=O)c1ccccc1	44
CC(C)N(C(=S)Nc1ccc(Oc2ccccc2)cc1)C(C)c1ccccn1 (stereo unspecified)	103
O=C1CCCCCN1Sc1c(-c2ccccc2)nc2sccn12	97
C=CCn1c(O)c(C=Nc2ccccc2)sc1=S	101
